# Bioassay records from PubChem.
# HNF4A DNA FP – change in binding of human HNF4A to DNA, primary screen, biochemical, fluorescence polarization, FITC-DNA. 1 h. activity change, % at 10 µM. actives 0.3% (n = 360,000). AID 1224865, 2016; in the data active = activity change above about 30%, passing the limit was not always enough;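 note: controls were the assay level and a saturating level of protein; the project sought stronger binding though the title names inhibitors; some compounds called inactive have numbers as strong as hits; positive values seem to mean higher polarization but the record does not say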
# FGF22 binding – binders of human FGF22 protein, primary screen, FGF22 synaptogenesis inhibitor project, biophysical, thermal shift, single point | AID 651658, 2012 | Fibroblast growth factor 22 (Homo sapiens), Q9HCT0 | recombinant FGF22 thermal shift, SYPRO orange fluorescence; percent of sucrose octasulfate shift, DMSO zero | calls only at 9.99 µM | actives 1.5% (n = 340,000);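 active = melting point raised past a set limit in the mean and every replicate; inconclusive = no clear call; three in four hits are not shown here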
# Target sequence (Q9HCT0 whole entry, looked up): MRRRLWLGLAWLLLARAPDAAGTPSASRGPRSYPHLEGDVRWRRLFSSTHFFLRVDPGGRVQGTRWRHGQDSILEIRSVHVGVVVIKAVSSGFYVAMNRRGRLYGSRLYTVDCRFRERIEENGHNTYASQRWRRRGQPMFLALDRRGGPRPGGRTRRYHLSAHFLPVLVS
# Vif TR-FRET – inhibitors of Vif binding to APOBEC3G peptide, primary screen, biochemical, TR-FRET, GST-Vif 1-94, biotin-A3G peptide, dose response retest (AID 1117319). TR-FRET GST-Vif / biotin-A3G peptide binding; higher % means a stronger effect; test concentration not given here; strong numbers were not always called active. one-dose inhibition, %; IC50 in µM for titrated hits. actives 0.57% (n = 260,000);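 active = above the screen mean plus three standard deviations and confirmed in dose response; inconclusive = results disagree or hit not tested in dose response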;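 note: Vif residues 1-94 fused to GST binding biotinylated APOBEC3G peptide 110-148; 0% = full assay without inhibitor and 100% = GST in place of GST-Vif; retest series ran down from 100 µM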
# AF4-AF9 inh – inhibitors of AF4 peptide binding to AF9, primary screen, biochemical, AlphaScreen, biotin-AF4 peptide, FLAG-AF9, single point; inhibition, % at 10 µM; actives 0.47% (n = 350,000); AID 651704, 2012;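 active = every replicate reaching a set inhibition limit, whatever the replicate mean, cut at about 25% in these data; inconclusive = mean inhibition reaches that limit but some replicates miss it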;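 note: 0% = plate neutral control median and 100% = total signal loss; the record names both 10 and 1 µM as test concentration; the first replicate is given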
# Target sequence (P42568 whole entry, looked up): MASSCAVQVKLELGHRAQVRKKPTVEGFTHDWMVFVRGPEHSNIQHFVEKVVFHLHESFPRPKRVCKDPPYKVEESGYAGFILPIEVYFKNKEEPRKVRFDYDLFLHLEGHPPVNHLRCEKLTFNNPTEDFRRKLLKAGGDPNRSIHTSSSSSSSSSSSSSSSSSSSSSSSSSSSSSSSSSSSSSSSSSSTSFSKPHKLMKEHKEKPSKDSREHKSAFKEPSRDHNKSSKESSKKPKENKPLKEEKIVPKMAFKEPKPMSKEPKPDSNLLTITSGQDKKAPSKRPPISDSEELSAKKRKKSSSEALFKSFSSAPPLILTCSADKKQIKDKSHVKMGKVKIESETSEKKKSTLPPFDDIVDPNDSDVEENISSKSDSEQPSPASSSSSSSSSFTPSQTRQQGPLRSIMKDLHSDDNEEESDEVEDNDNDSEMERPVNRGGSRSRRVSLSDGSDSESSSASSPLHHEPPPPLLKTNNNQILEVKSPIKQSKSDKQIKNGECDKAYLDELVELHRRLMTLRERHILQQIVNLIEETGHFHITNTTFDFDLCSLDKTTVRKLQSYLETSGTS
# E coli growth – E. coli growth inhibition, primary screen, OD600; AID 1053175, 2014; Escherichia coli growth, 23 h; active compounds read low; actives 0.21% (n = 330,000); OD600 absorbance (test concentration not listed);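 active = OD600 absorbance below the run mean of sample wells minus 3.6 SD, in any replicate, cut at about 0.56 in these data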;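 note: stock transfer was 300 nL into about 60 µL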
# RanGTP-Imp inh – inhibitors of RanGTP-importin-beta interaction, primary screen, biochemical, FRET, CFP-Ran, YFP-importin-beta, homogeneous; Ran GTPase (GTP-bound) - importin-beta complex; cell-free CFP-Ran/YFP-importin-beta FRET ratio; inhibition, % (concentration not given with the values); actives 1.1% (n = 300,000); AID 2216, 2009;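 active = most replicates above 15%; inconclusive = exactly half above 15%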;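 note: 0% = DMSO wells and 100% = Ran loaded with GDP instead of GTP; wells of about 40 µL received 100 nL stock; the first replicate is given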
# UCH37 inh – inhibitors of human UCH37 deubiquitinase, primary screen, biochemical, Ub-AMC cleavage, fluorescence; Ubiquitin carboxyl-terminal hydrolase isozyme L5 (Homo sapiens), Q9Y5K5; purified proteasome/UCH37; inhibition, % (no concentration beside the values); actives 0.33% (n = 330,000);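 active = mean of two replicates above 20%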;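 note: 0% = compound-free wells with enzyme and 100% = wells lacking proteasome; stock transfer was 100 nL into about 20 µL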
# Target sequence (Q9Y5K5 whole entry, looked up): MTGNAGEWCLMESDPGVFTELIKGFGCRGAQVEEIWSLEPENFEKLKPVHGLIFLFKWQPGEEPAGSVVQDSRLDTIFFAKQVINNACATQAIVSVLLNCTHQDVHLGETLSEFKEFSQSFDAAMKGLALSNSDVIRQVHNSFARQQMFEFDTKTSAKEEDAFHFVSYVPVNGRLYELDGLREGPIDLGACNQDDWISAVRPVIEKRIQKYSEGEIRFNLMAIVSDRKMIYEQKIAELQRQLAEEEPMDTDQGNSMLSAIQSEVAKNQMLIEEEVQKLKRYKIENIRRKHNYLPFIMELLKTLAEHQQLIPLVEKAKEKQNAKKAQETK
#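 Test system – human UCH37 enzyme supplied as purified proteasome complex · Incubation – 30 min preincubation with enzyme, 25 min cleavage at room temperature · Detection – AMC fluorescence from Ub-AMC cleavage, excitation 355 nm, emission 460 nm · Benchmarks – no-proteasome wells (full inhibition) and compound-free wells (no inhibition)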
# * marks the source's active call; other numbers are inactive results; i = inactive; ? = inconclusive; / = no result given; & = joins results of further samples. Some of the compounds tested; the hit share may differ from the screen's.
SMILES,HNF4A DNA FP,FGF22 binding,Vif TR-FRET,AF4-AF9 inh,E coli growth,RanGTP-Imp inh,UCH37 inh
Cn1c(=O)c2c(ncn2CC(=O)OCC(=O)c2ccc(Cl)cc2)n(C)c1=O,1.9,i,/,-10.6,/,5.9,/
Cn1c(=O)oc2ccc(C(=O)CSc3nnnn3-c3ccccc3)cc21,0.9,/,2.8%,/,0.706,/,1.8
CCOC(=O)c1ccc(N2C(=O)C3C(/C=C/c4ccccc4)OC4(C(=O)c5ccccc5C4=O)C3C2=O)cc1 (stereo not given),-0.3,i,/,1.2,0.696,-5.9,0.8
O=C(CN1C(=O)/C(=C\c2cccc(Br)c2)Oc2ccccc21)NCC1CCCO1 (stereo not given),0.3,i,/,-0.5,0.715,2.1,i
COc1ccc(C)cc1N1C(=N)/C(=C2/Nc3ccccc3S2)C(c2ccccc2)C1=O (stereo not given),-4.9,i,-5.0%,12.0,0.726,/,-8.4
CCCCOc1ccc(N(CC(=O)NC(C)C)C(=O)CCC(=O)Nc2ccccn2)cc1,0.7,i,-3.5%,-1.0,0.719,1.2,4.3
C#CCNC(=O)C1=C[C@@H](c2ccc(C(F)(F)F)cc2)C[C@@H](OCCCCO)O1,2.3,i,2.9%,-1.7&-1.1,/,2.5,0.3
O=S(=O)(c1ccc2c(c1)OCCO2)N1CCCN(S(=O)(=O)c2c(F)cccc2F)CC1,-1.0,i,/,-5.7,0.693,/,1.3
CCCC[C@@H]1CNCCN1CC1(c2ccccc2)CC1,-2.5,i,/,10.4,/,1.8,1.3
CC(=O)c1ccc(OCCOc2ccc(Cl)c3cccnc23)cc1,1.0,i,-5.8%,4.0,0.693,6.0,4.3
Cc1ccc(S(=O)(=O)N2CCCCC2)cc1NS(=O)(=O)c1ccc(Cl)c(C(=O)O)c1,-1.0,i,-4.9%,-6.0,0.702,/,3.6
COc1ccc(C)cc1NC(=O)c1cc2c(=O)n3ccccc3nc2n1C,-1.5,i,/,-3.3,0.751,/,-165.6
CC(=O)NC(C)C(c1cccs1)N1CCN(c2ccccc2)CC1 (stereo not given),-2.1,/,2.7%,/,0.721,?,1.6
O=C(CNC(=O)c1ccccc1)c1ccccc1,0.7,i,/,-1.8,0.639,-2.7,12.1
COc1cc2c(cc1OC)-c1cc(NCc3ccccn3)nc(=O)n1CC2,1.0,/,10.7%&-4.9%,/,0.669,2.1,-58.0
COCCOC(=O)C1=C(C)NC(=O)NC1C1CC=CCC1 (stereo not given),0.0,i,2.5%,0.1,0.652,-3.2,1.4
COc1cc(O)oc1C=Nc1ccc(Cl)cc1Cl,1.6,/,-0.3%,/,0.699,5.2,8.7
CCc1ccc(CNC(=O)c2cc3c(C)nc4ccccc4c3o2)cc1,6.0,i,4.0%,-8.4,0.739,2.2,5.2
NS(=O)(=O)c1ccc(CNC(=O)c2cc(=O)[nH]c3ccccc23)cc1,1.5,i,/,-7.0,0.708,0.3,-33.1
O=C(OCc1cc(=O)n2ccsc2n1)c1ccc(OC(F)F)cc1,-1.9,i,0.3%,-1.1,0.687,/,-0.4
Cc1ccc(CNC(=S)NC2CCCCC2)cc1,3.9,i,-8.7%,-1.0,0.727,0.5,5.9
COc1ccc(CCCc2nnc(SCC(=O)Nc3nccs3)n2C)cc1C,-1.2,/,5.7%,/,0.7,?,0.6
CC(=O)O[C@H]1C(=O)[C@]2(C)[C@H]([C@H](OC(=O)c3ccccc3)[C@]3(O)C[C@H](OC(=O)[C@H](O)[C@@H](NC(=O)c4ccccc4)c4ccccc4)C(C)=C1C3(C)C)[C@]1(OC(C)=O)CO[C@@H]1C[C@@H]2O,-3.1,i,/,0.0,/,3.1,5.4
CCOC(=O)Nc1ccc2c(c1)N(C(=O)CCN(C)C)c1ccccc1S2,-0.9,/,-2.9%,/,0.676,0.2,4.2
Cc1sc2nc(SCc3nnc(-c4cccs4)o3)n(C3CCCC3)c(=O)c2c1C,0.2,/,-11.4%,/,0.751,3.3,0.4
COc1ccc(N2C(=O)CCC2(C#N)c2ccc(OC)cc2)cc1 (stereo not given),-0.6,/,1.7%,/,0.754,4.3,3.8
CCOC(=O)C(=Cc1ccc2c(c1)OCO2)c1ccccc1,-0.1,i,-10.4%,3.7,0.69,/,2.8
CN(C(=O)c1coc(=O)c2ccccc12)c1ccccc1Cl,-4.3,i,-4.4%,0.7,0.699,-6.0,1.1
Cc1ccc(C(C)NC(=O)/C(C#N)=C\c2c(C)[nH]c3ccccc23)cc1 (stereo not given),-1.1,/,-2.9%,/,0.756,1.6,1.7
NC(=O)c1cc(S(=O)(=O)NCc2ccccc2)cs1,0.6,i,/,-1.2,0.713,3.9,-1.4
Cc1nn(C(C)CC(=O)O)c(C)c1C (stereo not given),0.0,/,4.1%,/,0.687,-0.5,0.1
Cc1c(NC(=S)NC(=O)Cc2ccccc2)cccc1C(=O)O,-2.3,/,-4.7%,/,0.674,0.4,1.2
CC(=O)Nc1c(F)c(F)c(F)c(F)c1F,-2.4,i,/,3.5,0.686,2.6,5.7
CCC(C(=O)Nc1ccc(C(=O)O)cc1NC(=O)C(CC)c1ccccc1)c1ccccc1 (stereo not given),1.7,i,/,-1.5,0.653,-0.6,-0.6
Cc1nc(/C=C/c2ccccc2)cc(/C=C/c2ccccc2)n1,4.2,/,-0.3%,/,0.696,2.0,-35.7
C=CCN(c1ccccc1)S(=O)(=O)c1cc2c(cc1C)N(C)CCO2,-7.6,i,/,19.7,0.71,-0.4,0.9

# Looked up above:
# CN(C(=O)c1coc(=O)c2ccccc12)c1ccccc1Cl | HNF4A DNA FP = -4.3
# Cc1ccc(C(C)NC(=O)/C(C#N)=C\c2c(C)[nH]c3ccccc23)cc1 (stereo not given) | Vif TR-FRET = -2.9%

# (list continues)
SMILES,HNF4A DNA FP,FGF22 binding,Vif TR-FRET,AF4-AF9 inh,E coli growth,RanGTP-Imp inh,UCH37 inh
Cc1ccc(NC(=S)Nc2ccc3cn[nH]c3c2)cc1,4.7,/,/,/,0.673,3.0,6.3
CCOC(=O)c1oc2nc3c(cc2c1N)COC(C)(C)C3,2.9,/,0.3%,/,0.691,?,-36.2
O=C(/C=N/O)Nc1cccnc1,-0.6,/,28.5%,/,/,-0.6,/
CS(=O)(=O)N1CCN(c2ccc([N+](=O)[O-])c(NCc3ccc(Cl)cc3)c2)CC1,33.1,i,-0.1%,1.3,0.707,-4.3,7.9
CCOC(=O)C1CCCN(CC(O)COc2cccc(C)c2)C1 (stereo not given),0.8,/,-4.7%,/,0.704,1.2,4.1
CCn1cc(C(=O)O)c(=O)c2cc(OC)ccc21,3.7,/,?,/,0.526*,2.3,-17.7
CCc1nnc(NCC(=O)N2CCc3ccccc32)s1,3.9,/,-1.8%,/,0.766,2.9,1.3
COc1ccc(Cc2nnc(NC(=O)c3ccco3)s2)cc1,-2.2,/,1.6%,/,0.685,-1.5,5.7
O=C(O)CCc1ccc(S(=O)(=O)Nc2ccc(OCc3ccccc3)cc2)cc1,-8.7,i,/,-1.4,0.689,-1.4,5.7
O=S(=O)(CCN1CCCCC1)Oc1ccc(Cl)cc1Cl,-1.3,i,-9.7%,3.2,0.702,-1.5,4.4
C[n+]1ccc(CC2C(=[N+]([O-])[O-])C=Nc3ncnn32)cc1 (stereo not given),-3.1,i,0.9%,-1.4,0.7,/,5.5
Cc1cc(=O)[nH]c2nnc(SCC(=O)N3CC(C)OC(C)C3)n12 (stereo not given),0.3,i,2.8%,0.5,0.656,3.0,3.4
COC(=O)c1c(C(=O)OC)c(-c2cccc(C)c2)n2c1CS(=O)(=O)C2,0.8,/,3.3%,/,0.726,1.5,3.9
COc1cc(/C=C/C(=O)OCC(=O)N2CCCc3ccccc32)ccc1OCC#N,-1.2,i,2.8%,3.6,0.682,/,-7.9
C=CCN1C(=O)CN=C1Nc1ccccc1,4.6,/,-10.7%,/,0.708,-3.1,0.1
O=C(Nc1ccc([N+](=O)[O-])cc1)c1cc2ccccc2nc1Cl,1.7,i,27.9%,-36.6,0.64,-1.0,2.2
CCN1CCC(NC(=O)Nc2ccccc2C(=O)OC)CC1,-2.2,i,0.3%,0.3,0.653,0.4,-14.5
CCCc1nnc(SCC(=O)N2CCCC(C)C2)n1CCCOC (stereo not given),0.2,/,7.1%,/,0.716,3.0,0.0
COc1ccc(N2CCN(S(=O)(=O)c3c[nH]c(=O)[nH]c3=O)CC2)cc1,-0.6,i,-0.1%,-0.2,0.628,4.9,0.7
CC(C)C[C@H](NC(=O)c1nc[nH]c1C(=O)N(C)Cc1ccccc1)C(=O)OC(C)(C)C,-4.6,i,/,4.0,/,2.8,4.3
Cc1cccc(OCCCC(=O)Nc2ccc(N3CCCCC3)cc2)c1,2.8,/,10.8%,/,0.767,-3.3,3.4
CC(=O)N(C1=C(N)C(=O)c2ccccc2C1=O)c1ccccc1,0.5,i,4.9%,2.9,0.604,0.9,37.2*
O=C(Nc1ccccc1N1CCCCC1)c1ccc([N+](=O)[O-])o1,3.8,i,1.0%,-8.7,0.677,/,3.1
O=C(NCCc1nc2ccccc2[nH]1)c1ccc([N+](=O)[O-])cc1,-0.7,i,?,-0.3,0.616,-1.3,4.4
O=C(NC1CCCC1)C1c2ccccc2OCC(=O)N1Cc1ccco1 (stereo not given),-0.1,i,/,-3.1,/,/,/
Cc1ccc(N(CC(=O)NCCSc2ccccn2)S(C)(=O)=O)cc1,3.9,i,9.2%,-1.2,0.656,?,-0.6
Cc1sc2ncnc(N3CCC(C(=O)Nc4ccc(C#N)cc4)CC3)c2c1C,1.6,i,-18.8%,-0.9,0.72,-2.7,-9.6
COc1ccc(CNC(=O)C(C)n2nc(C)c3c(C)n(-c4ccc(C)cc4)nc3c2=O)cc1 (stereo not given),1.0,i,/,0.2,0.654,2.9,4.6
CCCCn1c(N)c(N(CCOC)C(=O)c2cc(=O)[nH]c3ccccc23)c(=O)[nH]c1=O,4.6,i,-2.5%,-0.1,0.669,/,0.4
c1ccc2c(c1)oc1c(N3CCN(Cc4ccc5c(c4)OCO5)CC3)ncnc12,-0.7,/,1.1%,/,0.678,0.5,3.2
CC(C)(C)C(=O)Nc1ccc(S(=O)(=O)c2ccc(NC(=O)C(C)(C)C)cc2)cc1,-2.0,i,?,5.7,0.708,-7.4,0.1
Cc1cccc(C(=O)NNC(=O)C2CCCO2)c1 (stereo not given),1.3,/,1.9%,/,0.716,4.9,0.7
Cc1sc2nc(CSCC(=O)N(CCC#N)c3ccccc3)[nH]c(=O)c2c1C,19.3,i,5.9%,-2.9,0.663,-0.3,-8.5
O=C(c1ccccn1)N1CCN(c2cccc(C(F)(F)F)c2)CC1,0.3,i,-6.0%,0.5,0.66,-0.7,0.0
CC(Nc1ccc(N2CCOCC2)cc1)C(=O)N1c2ccccc2CC1C (stereo not given),1.9,/,?,11.0,0.666,2.1,-0.8
CC(=O)C[C@@H]1OC[C@H](C)N1S(=O)(=O)c1ccc(C)cc1,2.8,i,/,-1.8,/,/,/
CN(CC(=O)Nc1cccc(F)c1)C(=O)CCSc1ccc(F)cc1,1.6,i,4.9%,-1.6,0.706,3.5,5.7
C=C(C)C(=O)N1CCN(C(=O)C(=C)C)c2ccccc21,-1.5,i,-6.7%,-0.6,0.697,/,1.2
